AF4-AF9 inh – inhibitors of human MLL-AF4/AF9 interaction; P42568; AlphaScreen, biotin-AF4 peptide binding to FLAG-AF9; inhibition, % at 10 µM; hit rate 0.47% among 350,000; AID 651704;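 active = every replicate reaching a set inhibition limit, whatever the replicate mean, cut at about 25% in these data; inconclusive = mean inhibition reaches that limit but some replicates miss it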;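 note: 0% = plate neutral control median and 100% = total signal loss; the record names both 10 and 1 µM as test concentration; the first replicate is given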
Ecoli rRNA inh – inhibits bacterial ribosomal RNA function over humanized ribosomes; E. coli WT GFP vs humanized-ribosome RFP mutants, fluorescence, 24 h; hits give low values; DMSO median 0, no signal -100; GFP signal change (wild-type ribosome), % (concentration not given with the values); hit rate 1.6% among 350,000; AID 720706;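 active = significant combined selectivity score with lowered wild-type GFP, culture density cut under 30%, mutant RFP and density less affected; inactive = any of these conditions unmet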; note: one replicate is shown; some compounds called inactive have numbers as strong as hits
HNF4A DNA FP – change in binding of human HNF4 alpha to DNA. P41235. HNF4a-FITC DNA binding, fluorescence polarization, 1 h. activity change, % at 10 µM. hit rate 0.3% among 360,000. AID 1224865; in the data active = activity change above about 30%, passing the limit was not always enough;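 note: controls were the assay level and a saturating level of protein; the project sought stronger binding though the title names inhibitors; some compounds called inactive have numbers as strong as hits; positive values seem to mean higher polarization but the record does not say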
Target sequence (P41235 whole entry, looked up): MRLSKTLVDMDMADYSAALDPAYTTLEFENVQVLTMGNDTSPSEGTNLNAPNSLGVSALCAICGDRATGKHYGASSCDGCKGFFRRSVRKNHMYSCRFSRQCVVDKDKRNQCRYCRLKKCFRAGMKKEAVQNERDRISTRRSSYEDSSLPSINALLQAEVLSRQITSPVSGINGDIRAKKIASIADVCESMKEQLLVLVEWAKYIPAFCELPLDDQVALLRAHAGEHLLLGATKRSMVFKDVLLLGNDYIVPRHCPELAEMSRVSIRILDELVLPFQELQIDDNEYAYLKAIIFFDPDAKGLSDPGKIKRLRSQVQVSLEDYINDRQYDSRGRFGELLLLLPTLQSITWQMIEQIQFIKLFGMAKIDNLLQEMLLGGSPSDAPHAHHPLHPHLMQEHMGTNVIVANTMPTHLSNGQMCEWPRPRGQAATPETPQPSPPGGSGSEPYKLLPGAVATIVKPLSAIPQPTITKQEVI
Vif TR-FRET – HIV-1 Vif–A3G interaction blockers – biochemical, TR-FRET, GST-Vif 1-94, biotin-A3G peptide, dose response retest, primary screen (AID 1117319). TR-FRET GST-Vif / biotin-A3G peptide binding; higher % means a stronger effect; test concentration not given here; strong numbers were not always called active. one-dose inhibition, %; IC50 in µM for titrated hits. hit rate 0.57% among 260,000;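 active = above the screen mean plus three standard deviations and confirmed in dose response; inconclusive = results disagree or hit not tested in dose response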;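 note: Vif residues 1-94 fused to GST binding biotinylated APOBEC3G peptide 110-148; 0% = full assay without inhibitor and 100% = GST in place of GST-Vif; retest series ran down from 100 µM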
ALR H2O2 inh – human ALR oxidase inhibition via reduced H2O2. P55789. purified ALR, DTT oxidation, H2O2 HRP-luminol luminescence. inhibition, % (no concentration beside the values). hit rate 3.8% among 290,000. AID 485317;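 active = mean and each replicate at 75% or more; inconclusive = only one of the two met; inactive = neither met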;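 note: stock transfer was 7.5 nL into about 7.5 µL; 0% = neutral wells and 100% = wells with inactivated enzyme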
Target sequence (P55789 whole entry, looked up): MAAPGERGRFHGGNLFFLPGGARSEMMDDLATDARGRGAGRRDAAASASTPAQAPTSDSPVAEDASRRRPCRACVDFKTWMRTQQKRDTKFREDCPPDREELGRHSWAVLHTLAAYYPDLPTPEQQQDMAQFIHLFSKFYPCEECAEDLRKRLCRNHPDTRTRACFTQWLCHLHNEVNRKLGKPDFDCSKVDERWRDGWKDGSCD
FGF22 binding – shifts melting point of recombinant human FGF22. Q9HCT0. recombinant FGF22 thermal shift, SYPRO orange fluorescence; percent of sucrose octasulfate shift, DMSO zero. AID 651658. hit rate 1.5% among 340,000. calls only at 9.99 µM;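 active = melting point raised past a set limit in the mean and every replicate; inconclusive = no clear call; three in four hits are not shown here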
Target sequence (Q9HCT0 whole entry, looked up): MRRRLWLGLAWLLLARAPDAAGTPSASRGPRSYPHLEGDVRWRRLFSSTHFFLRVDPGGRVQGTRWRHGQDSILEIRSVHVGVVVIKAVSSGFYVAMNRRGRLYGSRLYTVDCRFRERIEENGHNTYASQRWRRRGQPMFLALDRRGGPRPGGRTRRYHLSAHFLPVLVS
E coli growth – inhibitors of Escherichia coli growth; OD600, 23 h; hits give low values; OD600 absorbance (no concentration beside the values); hit rate 0.21% among 330,000; AID 1053175;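 active = OD600 absorbance below the run mean of sample wells minus 3.6 SD, in any replicate, cut at about 0.56 in these data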;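 note: stock transfer was 300 nL into about 60 µL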
Ecoli rRNA inh OD600 – recorded beside Ecoli rRNA inh, whose call it bears; OD600 change, %; measured here: OD600 growth;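 optical density of the mix in the first replicate; 0 = DMSO median and -100 = no signal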
Ecoli rRNA inh RFP – also measured in Ecoli rRNA inh; calls as there; RFP signal change, %; measured here: RFP humanized mutant strains;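 first replicate; 0 = DMSO median and -100 = no signal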
Starred values were filed as active, the others as inactive; i = inactive; ? = inconclusive; / = no result given. A portion of the library (hit frequency here may not be typical).

AF4-AF9 inh	Ecoli rRNA inh	Ecoli rRNA inh OD600	Ecoli rRNA inh RFP	HNF4A DNA FP	Vif TR-FRET	ALR H2O2 inh	FGF22 binding	E coli growth	Molecule
/	/	/	/	0.7	/	-6.8	/	0.697	O=C(O)CCC(=O)N1N=C(c2c(-c3ccccc3)c3cc(Cl)ccc3[nH]c2=O)CC1c1ccco1 (stereo not drawn)
1.2	1.5	5.3	-1.1	-1.6	/	/	i	0.669	O=C(NCC1CCCO1)c1ccc(Cl)c(S(=O)(=O)N2CCOCC2)c1 (stereo not drawn)
0.5	-1.1	1.0	9.7	12.1	/	/	i	0.691	Cc1cnc(=O)[nH]c1SCc1cccc(C(F)(F)F)c1
0.8	1.0	2.9	-3.2	2.2	/	/	i	0.707	COc1ccc(NC(=O)Cc2nnc(SCC(=O)NC3=NCCS3)n2C)cc1
-32.5	8.6	3.6	1.3	2.7	3.3%	-3.0	i	0.651	O=C(CSCC(=O)NCc1ccco1)NCc1ccco1
/	/	/	/	1.3	3.0%	-4.8	/	0.721	Cn1nnnc1SCC(=O)N1c2ccccc2Sc2ccc(Cl)cc21
-10.3	2.1	-0.4	-1.6	-1.5	/	2.8	i	0.679	Cc1cc2nsnc2c(S(=O)(=O)N2CCN(C)CC2)c1C
1.4	-14.2	-16.6	2.8	4.0	-1.9%	-5.5	i	0.718	COc1ccccc1CNC(=O)C1CCN(S(=O)(=O)c2ccc3c(c2)CC(C)N3C(=O)C2CC2)CC1 (stereo not drawn)
/	12.6	5.7	-2.2	-2.4	26.0%	-8.2	i	0.683	CCCCN(C)CCCNC(=O)/C=C1\Sc2ccccc2NC1=O
0.2	-2.2	1.7	-2.3	/	/	/	i	/	C[C@H](CO)N1C[C@H](C)[C@H](CN(C)C(=O)Nc2ccc(C(F)(F)F)cc2)Oc2c(NC(=O)Nc3ccccc3)cccc2C1=O
4.4	-51.0	-73.2	-9.5	7.2	/	/	i	/	OC(c1cccnc1)c1nc(/C=C/c2ccc(C(F)(F)F)cc2)cs1 (stereo not drawn)
0.6	1.6	14.4	-0.3	1.3	/	-4.1	i	0.714	CC(NS(=O)(=O)c1ccc(NC(=O)N2CCCCC2)cc1)c1ccccc1 (stereo not drawn)
-6.6	3.9	1.1	-1.9	/	/	/	i	/	CO[C@@H]1CN(C)C(=O)c2ccc(NC(=O)c3ccno3)cc2OC[C@@H](C)N(S(C)(=O)=O)C[C@H]1C
-3.4	-0.1	1.0	-0.7	/	/	/	i	/	Cc1ccc(S(=O)(=O)Nc2ccc3c(c2)C(=O)N([C@@H](C)CO)C[C@H](C)[C@@H](CN(C)C)OCCCC[C@H](C)O3)cc1
-1.1	-2.6	8.4	-2.4	-0.7	2.6%	-1.5	i	0.669	CCCC(=O)Nc1ccccc1NC(=O)c1ccc(OCC)cc1
1.1	-2.4	9.3	1.7	-0.3	-4.5%	43.5	i	/	COc1cc(/C=N/NC(=O)Cc2nnc(NC(=O)c3ccccc3)s2)ccc1O
-0.6	-41.7*	-35.9*	-2.2*	/	/	/	/	/	COC(=O)C1=C(C)N(Cc2ccc(C(F)(F)F)cc2)C(=NCc2ccccc2)NC1c1ccc(Cl)cc1 (stereo not drawn)
/	/	/	/	-2.2	22.6%	-0.6	/	0.698	Cc1nc2ccc(C(=O)N3CCN(c4ccccn4)CC3)cc2s1
0.3	6.1	1.5	6.8	-0.4	/	/	i	/	COc1cccc(CNc2nc3cc(-c4cnn(Cc5ccccc5)c4)sc3c(=O)n2C)c1
-0.6	1.8	2.3	-1.4	/	/	/	i	/	COc1cccc(C(=O)Nc2ccc3c(c2)C(=O)N(C)C[C@H](OC)[C@@H](C)CN[C@H](C)CO3)c1
-0.7	-22.0*	-7.3*	-2.0*	-0.2	/	/	i	0.674	COc1ccc(/C=C/C(=O)NCCNC(=O)c2ccccc2)cc1OC
-2.0	15.1	6.9	-2.3	4.8	-70.9%	-7.6	i	0.742	COc1cc(/C=C2\SC(=O)N(CCNC(=O)c3sc4cc(F)ccc4c3Cl)C2=O)cc(OC)c1OC
-4.2	-33.6	-44.9	-6.7	-1.4	-1.1%	98.0*	i	0.706	CC(C)(C)c1ccc(C(=O)CC(Sc2ccc(Cl)cc2)C(=O)O)cc1 (stereo not drawn)
-10.4	2.8	12.0	0.0	/	/	/	i	/	COCC(=O)Nc1ccc2c(c1)C(=O)N(C)C[C@@H](OC)[C@@H](C)CN(C(=O)Cc1cccnc1)[C@@H](C)CO2

Reformatted: results already given.
COc1cccc(CNc2nc3cc(-c4cnn(Cc5ccccc5)c4)sc3c(=O)n2C)c1
  AF4-AF9 inh: 0.3	Ecoli rRNA inh: 6.1	Ecoli rRNA inh OD600: 1.5	Ecoli rRNA inh RFP: 6.8	HNF4A DNA FP: -0.4	Vif TR-FRET: /	ALR H2O2 inh: /	FGF22 binding: i	E coli growth: /
COc1cccc(C(=O)Nc2ccc3c(c2)C(=O)N(C)C[C@H](OC)[C@@H](C)CN[C@H](C)CO3)c1
  AF4-AF9 inh: -0.6	Ecoli rRNA inh: 1.8	Ecoli rRNA inh OD600: 2.3	Ecoli rRNA inh RFP: -1.4	HNF4A DNA FP: /	Vif TR-FRET: /	ALR H2O2 inh: /	FGF22 binding: i	E coli growth: /

Looked up one by one from the entries so far:
AF4-AF9 inh	Ecoli rRNA inh	Ecoli rRNA inh OD600	Ecoli rRNA inh RFP	HNF4A DNA FP	Vif TR-FRET	ALR H2O2 inh	FGF22 binding	E coli growth	Molecule
-0.6	-41.7*	-35.9*	-2.2*	/	/	/	/	/	COC(=O)C1=C(C)N(Cc2ccc(C(F)(F)F)cc2)C(=NCc2ccccc2)NC1c1ccc(Cl)cc1 (stereo not drawn)
-0.7	-22.0*	-7.3*	-2.0*	-0.2	/	/	i	0.674	COc1ccc(/C=C/C(=O)NCCNC(=O)c2ccccc2)cc1OC
1.1	-2.4	9.3	1.7	-0.3	-4.5%	43.5	i	/	COc1cc(/C=N/NC(=O)Cc2nnc(NC(=O)c3ccccc3)s2)ccc1O

The listing continues.
AF4-AF9 inh	Ecoli rRNA inh	Ecoli rRNA inh OD600	Ecoli rRNA inh RFP	HNF4A DNA FP	Vif TR-FRET	ALR H2O2 inh	FGF22 binding	E coli growth	Molecule
-10.4	1.1	7.1	-2.8	-2.6	/	/	i	/	CNc1ccccc1C(=O)OCC(=O)N1CCc2ccccc2C1
/	/	/	/	3.2	/	0.1	/	0.732	Cc1nc(SCC(=O)Nc2cc(Cl)ccc2[N+](=O)[O-])nc(C)c1C
-0.9	-6.9	-0.4	-0.5	/	/	/	i	/	Cc1ccc(S(=O)(=O)N[C@H]2CC[C@@H](CCn3cc(C4CCCCC4)nn3)O[C@@H]2CO)cc1
-1.2	-4.0	-10.6	6.0	/	/	/	i	/	COc1cccc(CNC(=O)C[C@H]2CC[C@H]3[C@@H](COc4ccc(NS(=O)(=O)c5ccccc5F)cc4C(=O)N3C)O2)c1
-1.3	7.2	4.2	3.1	-0.6	/	/	i	/	CCCCCCCCN1C(=O)[C@H](CC(=O)NCc2cccs2)C[C@@]2(C(=O)OCC)CCCC=C12
-2.3	10.3	11.6	0.3	2.8	8.4%	97.2*	i	0.691	CSc1nc(-c2ccco2)nn1C(=O)c1ccc(C)cc1
0.6	17.9	7.3	1.2	2.9	27.2%	-6.7	i	0.705	N=c1c2c(n(Cc3ccc([N+](=O)[O-])cc3)c3c1CCC3)CCCC2
3.6	-1.9	-0.7	1.4	-0.4	/	-11.4	i	0.664	COc1ccc(NC(=O)CN2C(=O)COc3ccc(S(=O)(=O)N4CCCCC4)cc32)cc1OC
3.0	7.6	12.3	-3.9	0.7	12.9%	-8.0	i	0.692	Cc1cc(C)c2nc(C)cc(Nc3ccc(C(=O)N4CCOCC4)cc3)c2c1
-1.6	-0.4	-12.2	-0.1	/	/	/	i	/	Cc1ccc(S(=O)(=O)Nc2ccc3c(c2)CC(=O)N([C@H](C)CO)C[C@@H](C)[C@@H](CN(C)C(=O)Nc2ccc(C(F)(F)F)cc2)O3)cc1
-2.8	6.7	2.8	-1.6	/	/	/	i	/	COC(=O)c1cc2c(c3c4cc(F)ccc4n(S(=O)(=O)c4ccc(C)cc4)c13)C(=O)N(Cc1ccc(C(F)(F)F)cc1)C2
/	/	/	/	-1.1	-3.2%	-7.2	/	0.631	COc1ccc(NC(=O)CSc2nnc(N)s2)cc1

Structures listed so far shown as hits in ALR H2O2 inh:
AF4-AF9 inh	Ecoli rRNA inh	Ecoli rRNA inh OD600	Ecoli rRNA inh RFP	HNF4A DNA FP	Vif TR-FRET	ALR H2O2 inh	FGF22 binding	E coli growth	Molecule
-4.2	-33.6	-44.9	-6.7	-1.4	-1.1%	98.0*	i	0.706	CC(C)(C)c1ccc(C(=O)CC(Sc2ccc(Cl)cc2)C(=O)O)cc1 (stereo not drawn)
-2.3	10.3	11.6	0.3	2.8	8.4%	97.2*	i	0.691	CSc1nc(-c2ccco2)nn1C(=O)c1ccc(C)cc1

Further compounds
AF4-AF9 inh	Ecoli rRNA inh	Ecoli rRNA inh OD600	Ecoli rRNA inh RFP	HNF4A DNA FP	Vif TR-FRET	ALR H2O2 inh	FGF22 binding	E coli growth	Molecule
-0.2	-16.5	-19.1	-2.0	-1.7	-5.5%	-1.9	i	0.702	COc1cc(C2NC(=S)NC(c3ccccc3)=C2C(C)=O)cc(Br)c1OCC(N)=O (stereo not drawn)
0.2	-0.3	11.7	1.5	-0.9	7.8%	-0.7	/	0.727	O=C(CSc1ccccc1)Nc1ccc(S(=O)(=O)Nc2ncccn2)cc1
2.6	-11.2	-3.1	0.4	1.3	1.6%	-13.4	i	0.647	CC1(C)CCC[C@]2(C)[C@H]3CC(=O)O[C@]3(C)CC[C@@H]12
/	/	/	/	-0.1	29.3%	-4.9	/	0.72	CN(C(=O)c1ccc2c(c1)OCO2)C1(C(=O)NC2CCCCC2)CCCCC1
-6.8	8.6	-2.5	-1.5	5.6	6.7%	-8.3	i	0.69	COc1ccc(NC(=S)N(CCN2CCOCC2)C2CCN(C(C)=O)CC2)cc1Cl
-14.2	5.4	5.8	1.9	-1.8	/	69.3	i	0.664	COc1ccc(N2CCN(CNC(=O)c3ccccc3)CC2)cc1
-1.3	-2.2	-6.6	10.1	-2.2	/	-14.3	i	0.667	CC1CN(C(=O)CCC(=O)NCc2ccc(F)cc2)c2ccccc2S1 (stereo not drawn)
?	-4.0	-34.8	0.7	2.6	-7.7%	-1.3	i	0.626	CN1CCN(S(=O)(=O)c2ccc(N(C)Cc3ccc(OC(F)F)cc3)c([N+](=O)[O-])c2)CC1
/	/	/	/	-1.9	-2.7%	-8.9	/	0.707	COc1ccc(NC(=O)NC23CC4CC(CC(C4)C2)C3)cc1OC
-1.2	0.4	-2.0	0.7	/	/	/	i	/	N#C[C@@H]1[C@@H](c2ccc(C3=CCCCC3)cc2)[C@@H](CO)N1C(=O)c1ccccn1
-1.6	7.9	-27.0	3.0	0.8	3.6%	/	i	0.581	Brc1ccc(OCc2nc3ccccc3[nH]2)cc1
3.6	-4.0	5.2	0.0	-0.9	4.6%	41.9	i	0.719	O=C(/C=C\NCC(=O)c1ccccc1)c1ccc(F)cc1
/	/	/	/	-7.0	0.2%	/	/	0.722	COc1cc(C(=O)N2CCN(S(=O)(=O)c3ccc(F)cc3)CC2)cc(OC)c1OC
8.3	-1.9	-7.5	11.1	/	/	/	i	/	COc1cccc(-c2ccc3c(c2)[C@@H]2[C@@H](CCN2S(=O)(=O)c2ccccc2C)[C@H](CO)N3)c1
5.6	-2.7	-1.2	-0.1	4.7	6.3%	-0.5	i	0.636	O=C(Nc1ncccc1O)c1ccc(S(=O)(=O)Nc2ccccc2)cc1
/	/	/	/	-3.2	-5.5%	0.5	/	0.75	CC(O)C(O)C(O)C(O)C1NCCS1 (stereo not drawn)
